Bioassay records deposited in PubChem by Fisher Drug Discovery Resource Center.
NPYLR7 ag: activates Aedes aegypti NPYLR7 receptor; HEK293T NPYLR7/Galpha15, GCaMP6s calcium fluorescence; activation, % at 10 µM; 0.15% of 270,000 active; AID 1259423; in the data active = activation above about 40%;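 note: 0% = vehicle and 100% = reference agonist at the receptor; some compounds past the cut are filed as inactive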
NPYLR7 ag max-min: recorded beside NPYLR7 ag, whose call it bears; activation, %; measured here: Max-Min RFU normalised activation; some inactives read as strong as hits;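 span of the calcium signal over five minutes; 0% = vehicle and 100% = native peptide agonist; compound fluorescence can raise it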
* = called active by the depositor; & = joins results of further samples. Only part of the results is shown (hit frequency here may not be typical).

SMILES	NPYLR7 ag	NPYLR7 ag max-min
CN(CC(=O)NC1CCCCC1)Cc1ccc(Cl)cc1	-6.7	-7.4
CCOC(=O)C1=C(Cn2nnc(-c3cccc(C(F)(F)F)c3)n2)NC(=O)NC1C (centres undefined)	3.7	7.2
CC(C)CC(C#N)OC(=O)c1ccc(Br)cc1 (centres undefined)	-3.1	-5.9
Clc1cccc2c(CN3CCOCC3)csc12	7.7	10.9
c1ccc(-c2nn(-c3ccccc3)c3c2C(c2ccncc2)Nc2ccccc2N3)cc1 (centres undefined)	6.6	13.6
O=C(NC1CCCC1)c1csc(Nc2ccc(OC(F)F)cc2)n1	10.4	0.7
Cc1ccc(C(=O)N2C(C(=O)NCc3ccccn3)COC23CCN(C(=O)c2cccc([N+](=O)[O-])c2)CC3)cc1 (centres undefined)	18.5	25.2
CNC(=S)NCCc1cc2ccc(C)cc2[nH]c1=O	4.9	3.2
Cc1cccc(NC(=O)c2cc(-c3ccccc3Cl)nc3ccccc23)c1	-5.0	-10.2
CCOCCCNC(=O)c1cc(NC(=O)Nc2ccc(F)c(F)c2)ccc1N1CCCCC1	-3.6	4.0
CC(=O)c1cccc2c1OC(F)(F)C(=O)N2Cc1ccc(Cl)cc1	6.6	3.7
COc1ccc(OC)c(S(=O)(=O)NC(=O)C2(C)CCN2C(=O)c2ccc(C3CCCCC3)cc2)c1 (centres undefined)	2.7	2.1
O=C1CCCN1CCC1CCN(Cc2cc(F)ccc2O)CC1	-0.3	-2.9
O=C(c1ccc(F)cc1)N(CC(=O)N1CCc2sccc2C1COc1ccccc1F)C1CC1 (centres undefined)	-3.0	-1.7
Cc1cc2oc3c(c(=O)c2cc1Cl)C(c1cccnc1)N(c1nc(C)c(C)s1)C3=O (centres undefined)	7.0	2.7

Copied from the list:
NPYLR7 ag with CC(=O)c1cccc2c1OC(F)(F)C(=O)N2Cc1ccc(Cl)cc1 = 6.6
NPYLR7 ag max-min with O=C(NC1CCCC1)c1csc(Nc2ccc(OC(F)F)cc2)n1 = 0.7

More entries follow.
SMILES	NPYLR7 ag	NPYLR7 ag max-min
O=C(O)c1ccccc1N=Cc1nc(-c2ccccc2Br)oc1O	-3.0	-12.3
COc1ccc(CCC2(C)NC(=O)N(CC(O)COc3cccc(Br)c3)C2=O)cc1 (centres undefined)	2.8	15.9
CCN(Cn1nc(-c2ccc(F)cc2)n(-c2ccc(F)cc2)c1=S)C1CCS(=O)(=O)C1 (centres undefined)	0.8	-5.9
COCCNc1nc2cc(-c3ccccc3C)sc2c(=O)n1C	1.8	-1.5
CCC(=O)Oc1ccc(C=C2C(=O)N(C)C(=O)N(C)C2=O)cc1OC	-3.0	-8.1
O=C(O)C1CC(=O)N(c2ccc(CCc3ccccn3)cc2)C1 (centres undefined)	16.6	11.5
COc1ccc(NC(C)=O)cc1S(=O)(=O)Oc1ccc2c(c1)CCC2	7.3	3.4
Cc1ccc(-c2ccc(=O)n(CC(N)=O)n2)cc1C	9.3	3.3
O=c1[nH]n(CCn2cc(C3CC=CCC3)nn2)c(=O)c2ccccc12 (centres undefined)	-1.2	-7.2
O=C(O)C12CCCC(Br)(CCC1)C2	19.8	25.6
O=S(=O)(NC1CC1)c1ccc(Cl)cc1C(F)(F)F	-0.8&1.0	4.7&-0.5
COc1ccc(-c2nc3ccccc3c(=O)n2CCc2ccc(F)cc2)c(OC)c1OC	3.2	1.8
NC(=O)C1CCCN1S(=O)(=O)c1cc2oc(=O)[nH]c2cc1Cl (centres undefined)	11.0	9.8
COc1ccc(OC)c(CCC(=O)NCc2ccc(O)c(F)c2)c1	15.8	12.3
CS(=O)(=O)N1CCCC(CCc2cccc(C(F)(F)F)c2)C1 (centres undefined)	-7.2	-3.2
Cn1ccnc(NCCCOC2CCCc3ccccc32)c1=O (centres undefined)	1.1	-0.4
C=C1c2ccccc2C(=O)N1CC(=O)OCC(=O)Nc1sc(C(C)=O)c(C)c1C(=O)OCC	14.4	12.6
O=C(Nc1cccc2[nH]c([C@@H]3O[C@H](CO)[C@@H](O)[C@H](O)[C@H]3O)nc12)NC(c1ccccc1)c1ccccc1	2.4	12.5
COc1ccc(C2CC(=O)C3C(=Nc4ccccc4NC3c3ccc(OC)c(OC)c3OC)C2)cc1 (centres undefined)	20.3	19.7
c1ccc(-c2noc(CSc3nc4ccccc4[nH]3)n2)cc1	0.0	0.1
COc1ccc(CCN(C)C(=O)CC(c2ccccc2)c2ccccc2)cc1OC	-6.8	-12.5
COCCCn1ccc2nc(N3CCOCC3)ncc2c1=O	4.9	5.7
FC(F)(F)c1ccccc1C1c2cccn2CCCN1Cc1ccoc1 (centres undefined)	-10.5	-8.8
CCN(CC)CCN(CC)C(=O)c1ccc(-c2n[nH]c3c2COc2ccccc2-3)cc1	6.2	0.1
C[C@H](NC(=O)/C(C#N)=C/c1ccc(O)c(O)c1)c1ccccc1	3.1	-10.6
Cc1cc(C(=O)O)ccc1NS(=O)(=O)c1cccc(Cl)c1	-4.0	-6.2
CCn1c(C)cc(C)c(C(=O)N2CCC3(CCCO3)CC2)c1=O	-3.3	-2.2
CCc1cccc(NC(=O)Nc2ccc(N3CCCC3)c(C(=O)NC(C)c3ccccc3)c2)c1 (centres undefined)	5.2	9.3
COc1cc(C(C2Sc3ncnn3C2=O)N2CCC(C(N)=O)CC2)cc(OC)c1OC (centres undefined)	3.3	3.3
CCS(=O)(=O)c1ccc(C(=O)O)c(NS(=O)(=O)c2ccccc2F)c1	-0.8	-2.0
CC(Cn1cccn1)NCc1cnn(-c2ccc(F)cc2)c1 (centres undefined)	-0.2	-3.8
COC(=O)C(Cc1ccccc1)NC(=O)C1CC(=O)N(N(C)c2ccccc2)C1 (centres undefined)	-6.6	-7.9
Cc1noc(-c2cc(Br)cc(Br)c2O)n1	3.4	-2.0
Cc1ccccc1-c1nc2scc(CCNS(=O)(=O)c3cc(F)ccc3F)n2n1	0.2	-2.6
O=c1c2ccccc2c(-c2ccccc2)nn1Cc1cccc(Br)c1	-6.1	-13.7
CN(C)c1ccc(C(=O)N2CCOC(COc3cccc(C(F)(F)F)c3)C2)cc1 (centres undefined)	3.7	16.2
COc1ccc(-c2csc(-n3[nH]c(-c4ccccc4)c(N=Nc4ccc(OC)cc4[N+](=O)[O-])c3=O)n2)cc1	-7.4	-10.7
C=c1ccccc1=c1[nH]c(=CC2=Cc3ccc(OC)cc3OC2)c(=O)o1	1.5	14.2
COc1ncccc1-c1ccc(CN2CCCC2)cc1	-3.4	-8.3
CC1Cc2ccccc2N1C(=O)Cc1cc(-c2ccc(F)cc2)on1 (centres undefined)	9.7	10.5
O=C(Nc1nc(-c2ccc(Br)s2)cs1)c1ccc(Br)s1	-4.0	-5.2
CC(C)(C)CN1CCNC(=O)C1CC(=O)NCc1ccc2nsnc2c1 (centres undefined)	25.9	9.8
OCc1cc(Br)cc(CO)c1OCc1ccc(Cl)c(Cl)c1	3.4	4.5
Cc1ccc(C)c(OC(C)C(=O)N2CCc3[nH]nc(C(C)C)c3C2)c1 (centres undefined)	-2.5	-8.0
O=C(COc1ccccc1F)Nc1ccc(SC(F)F)cc1	-1.8	-3.3
C=CCOCC(O)CN(Cc1cccc(OC)c1)CC1CCCO1 (centres undefined)	21.7	26.8
COc1cccc(-c2nn(-c3ccccc3)cc2CNCCc2ccco2)c1	17.5	5.1
Cc1nc(-c2ccc(C(F)(F)F)cc2)nc(N2CCN(C(=O)NC3CCCCC3)CC2)c1C(C)C	3.3	12.9
COCCN(CC(=O)N(Cc1ccccc1)Cc1ccco1)C(=O)Nc1c(C(C)C)cccc1C(C)C	-2.0	4.6
CC(C)C(NC(=O)C1=Cc2ccccc2OC1)c1cccs1 (centres undefined)	1.2	-2.1
O=S(=O)(CCN1CCc2ccccc2C1)Oc1ccc(Br)cc1	1.3	-1.0
Cc1nc2n(n1)C(=O)C(C(c1cccc(F)c1)N1CCC3(CC1)OCCO3)S2 (centres undefined)	3.4	1.2
CCc1cc(=O)n(CC(=O)NCc2ccccc2)c(-n2nc(C)cc2C)n1	-0.6	-2.1
COc1ccc(OC)c(NC(=O)C2(C)CCN2Cc2csc3ccccc23)c1 (centres undefined)	-3.2	-4.3
CCOc1ccc2c(c1)CN(C(=O)c1n[nH]c(C3CC3)c1Br)CC2	8.1	5.8
CCc1nnc(C2CCN(C(C)=O)CC2)s1	-1.7	2.1
CC(C)c1csc(CN2CCCC(CCC(=O)NCc3ccc(F)c(F)c3)C2)n1 (centres undefined)	2.1	-0.4
CC(=O)N1CCN(S(=O)(=O)c2cc(Br)ccc2Br)CC1	3.3	11.0
CCCn1c(=O)c2c(nc3n2CC(C)CN3c2ccc(Cl)cc2)n(C)c1=O (centres undefined)	0.6	2.1
O=[N+]([O-])c1cc(S(=O)(=O)N2CCOCC2)ccc1Sc1nnc2ccccn12	-1.0	-6.4

Part of the list above, as comma-separated lines:
Compound,NPYLR7 ag,NPYLR7 ag max-min
Cc1nc(-c2ccc(C(F)(F)F)cc2)nc(N2CCN(C(=O)NC3CCCCC3)CC2)c1C(C)C,3.3,12.9
COCCN(CC(=O)N(Cc1ccccc1)Cc1ccco1)C(=O)Nc1c(C(C)C)cccc1C(C)C,-2.0,4.6
CC(C)C(NC(=O)C1=Cc2ccccc2OC1)c1cccs1 (centres undefined),1.2,-2.1
O=S(=O)(CCN1CCc2ccccc2C1)Oc1ccc(Br)cc1,1.3,-1.0

The main list resumes, starting 4 compounds before the break.
SMILES	NPYLR7 ag	NPYLR7 ag max-min
CC(C)c1csc(CN2CCCC(CCC(=O)NCc3ccc(F)c(F)c3)C2)n1 (centres undefined)	2.1	-0.4
CC(=O)N1CCN(S(=O)(=O)c2cc(Br)ccc2Br)CC1	3.3	11.0
CCCn1c(=O)c2c(nc3n2CC(C)CN3c2ccc(Cl)cc2)n(C)c1=O (centres undefined)	0.6	2.1
O=[N+]([O-])c1cc(S(=O)(=O)N2CCOCC2)ccc1Sc1nnc2ccccn12	-1.0	-6.4
Cc1cc(CN(C)C(C)c2ccccn2)c(C)n1-n1cnnc1 (centres undefined)	10.1	2.8
Cc1ccoc1C(=O)NCCc1csc(C(C)C)n1	0.9	1.1
O=C(CCCc1cccs1)NNC(=O)COc1ccccc1F	0.4	-1.2
Cc1cc(Cl)ccc1OC(C)C(=O)OCc1nc(N)nc(N(C)C)n1 (centres undefined)	5.2	3.9
O=C1C2CC=CCC2C(=O)N1CN1CCCN(S(=O)(=O)c2ccc(F)cc2)CC1 (centres undefined)	5.8	10.9
O=C(CCCc1ccccc1)N(CC(O)c1ccc(F)cc1)C1CC1 (centres undefined)	5.9	4.6
COc1ccc2c(c1)CCCN(C(=O)c1cc(C(N)=O)c[nH]1)C2	-3.0	-2.8
CCC(OC(=O)c1cc2c(s1)CCC2)C(=O)Nc1cc(C)on1 (centres undefined)	2.5	17.3
CCCc1cc(N2CCN(Cc3nc(CC)[nH]c3C)CC2)nc(C)n1	5.8	4.2
N#Cc1ccc(C=NN2CCOCC2)cc1	-4.7	-6.3
Cc1ccnn1CC(=O)N1CCCC(CCc2ccccc2C(F)(F)F)C1 (centres undefined)	-3.8	-4.8
O=S(=O)(c1cc(Cl)c(Cl)cc1Cl)N1CCN(c2nccc(-c3ccco3)n2)CC1	-3.8	2.4
COCc1cc(C)nc(NN=Cc2ccc(N(C)C)c(Br)c2)c1C#N	-7.1	-9.4
CCOc1cc2c(cc1O)C(=O)c1ccccc1C2=O	6.2	8.8
O=C(CCCN1CCC(O)(c2cccc(C(F)(F)F)c2)CC1)c1ccc(F)cc1	3.7	-23.1
CCOc1ccc(C(=O)N2CCCN(CC(C)C)CC2)cc1OC	4.3	2.8
CCn1ccnc1P(=O)(c1ccccc1)N1CCCCCC1 (centres undefined)	5.0	4.7
